Compound activity from PubChem BioAssay.
Mtb bLac sens: beta-lactam sensitization of Mtb H37Rv. inhibition, % at 25 µM. M. tuberculosis H37Rv growth with meropenem, percent inhibition; hits of this screen are not shown here. hit rate 0.27% among 330,000;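 active = about 74% or more and at least 40 points above the plate without the antibiotic, then above 30% in a dose series; inconclusive = first-round hits that could not be retested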;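 note: growth measured after seven days incubation then overnight dye step; 0% = bacteria only wells and 100% = bacteria with antibiotic; twin plates without the antibiotic show which effects depend on it; some results filed as inactive read as strong as hits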
Numbers without * were called inactive; u = inconclusive. These rows are one share of the data; count on the stated rates, not on these rows.

No.	SMILES	Mtb bLac sens
1	CCOC(=O)[C@@H]1[C@H]2COc3cc(OC)ccc3[C@@H]2N2C(=O)N(c3ccc(F)cc3)C(=O)[C@@]12C	-8
2	Cc1ccc(NC(=O)CO/N=C(\N)c2ccccc2)cc1C	-3
3	C[C@H](CO)N1C[C@H](C)[C@@H](CN(C)S(=O)(=O)c2ccccc2)Oc2ccc(NC(=O)CCC(F)(F)F)cc2C1=O	11
4	Cc1c(NC(=O)c2cccc(NC(=O)Cc3ccccc3F)c2)c(=O)n(-c2ccccc2)n1C	-6
5	CCCc1cc(=O)[nH]c(SCC(=O)NC2CCCCCCC2)n1	2
6	Cn1c(-c2ccsc2)c(-c2cccs2)c2cc(Br)ccc21	17
7	O=S(=O)(c1ccccc1F)N1CCN(Cc2cc3c(cc2Br)OCCO3)CC1	-3
8	Cc1ccc(S(=O)(=O)Nc2ccc(O)c3cccnc23)cc1	8
9	COc1cccc(-c2nn(Cc3ccccc3)cc2C(=O)O)c1	-1
10	C=CCn1c(SCC(=O)Nc2ccc(C(=O)O)cc2)nc2sc(C)c(C)c2c1=O	-3
11	COc1ccc(NC(=O)CCc2ccccc2)cc1S(=O)(=O)N1CCOCC1	-7
12	Cc1ccc2c(c1)[C@H]1[C@H](CO2)[C@H](c2ccccc2)[C@]2(C)C(=O)Nc3cc(F)c(F)cc3C(=O)N12	10
13	C[C@]12CC[C@H](N)CC1=CCC1C2CC[C@@]2(C)C1CC[C@@H]2O (stereo not given in full)	-9
14	CC1(C)Cc2cccc(OCC(=O)OCC(=O)c3ccccc3)c2O1	0
15	COc1ccc(OC)c(S(=O)(=O)NCCCN2CCOCC2)c1	-1
16	CCCCCn1nc(C(=O)OCc2nc(N)nc(Nc3ccccc3)n2)c2ccccc2c1=O	5
17	CC[N+]1(C)[C@@H]2CC[C@H]1CC(OC(=O)[C@H]1CCC(C(=O)OC3C[C@H]4CC[C@@H](C3)[N+]4(C)CC)(c3ccccc3)c3ccccc31)C2 (stereo not given in full)	-2
18	CCCOc1cccc(C2C(C(=O)c3ccco3)=C(O)C(=O)N2c2nnc(C)s2)c1 (stereo not given)	-1
19	O=C(CSc1nnc2ccccn12)NNC(=O)c1cccc(Cl)c1	-2
20	Cc1ccc(Sc2ccc(S(=O)(=O)Nc3ccc(C(=O)O)cc3)cc2)cc1C	1
21	O=C(c1cc(-c2cccc3ccccc23)nc2ccccc12)N1CCN(CCO)CC1	3
22	Cc1ccc(S(=O)(=O)N2[C@@H](c3cccc(Cl)c3)C(C(=O)O)=CC[C@H]2c2ccc(Cl)c(Cl)c2)cc1	-1
23	Cc1ccc(NC(=O)Cc2c(F)cccc2Cl)cc1S(=O)(=O)N1CCOCC1	-3
24	O=C(N/N=C/c1c(Cl)cccc1Cl)c1ccc(-n2cnnn2)cc1	1
25	COC(=O)c1ccccc1Nc1ccnc(Cl)n1	-6
26	COC(=O)C1=C(C)N(CC2CC2)C(=NCc2cccc(C(F)(F)F)c2)N[C@H]1c1ccccc1	99
27	COC(=O)c1ccc(NC(=O)COC(=O)C2=NN(c3ccccc3)C(=O)CC2)cc1	-2
28	CCN(CC(=O)Nc1ccc(OC)cc1)CC(=O)Nc1sc2c(c1C(=O)OC)CCCC2	65
29	CCN(c1ccccc1)S(=O)(=O)c1cc(C(=O)NCC(c2ccco2)N2CCCCC2)ccc1C (stereo not given)	-5
30	Cc1cc(SCC(=O)NC2CC2)nc2ccccc12	3
31	O=[N+]([O-])c1cc([N+](=O)[O-])c(Oc2cc(F)cc(F)c2)cc1NN1CCCCC1	2
32	O=C(NCc1ccccc1C(F)(F)F)c1cccc2c1C(=O)c1ccc(N3CCOCC3)cc1S2(=O)=O	1
33	Cc1ccccc1NC(=O)Cn1cc(C(=O)C2CC2)c2ccccc21	-23
34	Cc1ccc(C2=NN(S(=O)(=O)c3ccccc3)C(c3ccco3)C2)cc1 (stereo not given)	2
35	O=C(Nc1cccc(S(=O)(=O)N2CCOCC2)c1)C1CCN(S(=O)(=O)c2ccccc2)CC1	-3
36	Cc1cc(NC(=O)c2ccc(Cl)cc2Cl)n(-c2ccccc2)n1	17
37	CC[C@@H](C)[C@@H]1CN([C@@H](CN2CCC[C@H]2CN2C(N)=NC[C@H]2C(C)C)C(C)C)C(=N)N1CCCC1CCCC1	96
38	CCc1cc(Cn2nc(-c3ccccc3)cc2C(=O)NCc2cccs2)on1	-4
39	Nc1c(C(=O)CSc2ccccn2)c(=O)[nH]c(=O)n1C1CC1	0
40	O=C(COC(=O)c1c[nH]c2ccccc12)Nc1ccc([N+](=O)[O-])cc1	1

Shown as labelled records: 4 of the compounds above.
[24] O=C(N/N=C/c1c(Cl)cccc1Cl)c1ccc(-n2cnnn2)cc1
  Mtb bLac sens: 1
[25] COC(=O)c1ccccc1Nc1ccnc(Cl)n1
  Mtb bLac sens: -6
[26] COC(=O)C1=C(C)N(CC2CC2)C(=NCc2cccc(C(F)(F)F)c2)N[C@H]1c1ccccc1
  Mtb bLac sens: 99
[27] COC(=O)c1ccc(NC(=O)COC(=O)C2=NN(c3ccccc3)C(=O)CC2)cc1
  Mtb bLac sens: -2

The listing continues.
No.	SMILES	Mtb bLac sens
41	CCOC(=O)CCCCCC(=O)Nc1ccc2c(c1)CC(=O)N([C@@H](C)CO)C[C@H](C)[C@@H](CN(C)C(=O)Nc1ccc3c(c1)OCO3)O2	1
42	COc1ccc(NC(=O)C2C3C=CC4(O3)C2C(=O)N(CCN2CCCCC2)C4C(=O)NC2CCCCC2)cc1 (stereo not given)	1
43	O=C(NCc1ccccc1CN1CCCC1)c1ccc(OCc2cscn2)cc1	-6
44	COc1ccc(NS(=O)(=O)c2cccc(C(=O)NN=Cc3ccc(OC)c(O)c3)c2)cc1	-1
45	c1ccc2c(C3CCO3)cccc2c1 (stereo not given)	2
46	O=C(NCCN1CCOCC1)c1c(Cl)cccc1Cl	-2
47	COc1cc(OC)cc(C(=O)OCC(=O)NCc2ccco2)c1	-5
48	COc1ccc(C(CNC(=O)COc2ccccc2)N2CCCCC2)cc1 (stereo not given)	-4
49	N#Cc1cccc(NC(=O)CCN2C(=O)C3CCCCC3C2=O)c1 (stereo not given)	-10
50	C=CCn1c(SCC(=O)Nc2cccc(S(N)(=O)=O)c2)nc2sc(C)c(C)c2c1=O	0
51	COc1ccc(S(=O)(=O)NCCC(=O)OCC(=O)NC2CC2)cc1	-2
52	Cc1cccc(CNc2ncnc3ccc(-c4ccccc4Cl)cc23)c1	3
53	CC(OC(=O)COc1ccccc1)C(=O)NC1CCCC1 (stereo not given)	-5
54	C[C@H](NC(=O)N1C[C@H]2C[C@@H](C1)c1cccc(=O)n1C2)C(=O)Nc1ccccc1F	-7
55	O=C(O)CCCNC(=O)c1nn(Cc2ccccc2)c(=O)c2ccccc12	-5
56	Cn1c(N)c(C(=O)COC(=O)Cc2cccs2)c(=O)n(C)c1=O	4
57	COc1ccc(-n2nc(C(=O)NCC(=O)N3CCN(c4ccccc4)CC3)c3ccccc3c2=O)c(OC)c1	-6
58	Nc1ccccc1Cl	-8
59	COc1cc(NC(=O)CCC(=O)Nc2ccc3nc(N4CCOCC4)cc(C)c3c2)cc(OC)c1OC	-1
60	CC(=O)NC(Cc1cccc(F)c1)C(=O)NC1CCN(C(=O)Nc2ccccc2)CC1 (stereo not given)	-2
61	Cc1ccccc1-n1c(SCC(=O)NCC2CCCO2)nnc1-c1ccncc1 (stereo not given)	-2
62	CCCNC(=O)C(Cc1ccccc1)NC(=O)c1ccccc1 (stereo not given)	-5
63	Cc1ccc(CNC(=O)c2ccccc2-n2cnnn2)cc1	-4
64	NNC(=O)c1ccc(O)cc1	3
65	CCOc1ccc2oc(C(=O)OCC(=O)N3C(C)CCCC3C)c(C)c2c1 (stereo not given)	41
66	O=C1CN(C(=O)/C=C/c2cc(Br)ccc2F)CCN1	-7
67	O=C(c1ccco1)N1CCN(S(=O)(=O)c2ccccc2)CC1	-4
68	CC(C)(C)OC(=O)N1CCCC(C(=O)Nc2ccc(C(=O)N3CCCC3)cc2)C1 (stereo not given)	2
69	N#Cc1ccc(CN2CCN(C(=O)CNS(=O)(=O)c3ccc4c(c3)OCCCO4)CC2)cc1	16
70	CCC1Nc2ncnc(N3CCOCC3)c2N(Cc2ccc(Br)cc2)C1=O (stereo not given)	-9
71	Cn1cncc1C#Cc1ccc2cc(C(C)(C)O)oc(=O)c2c1	-6
72	CCOC(=O)c1ccc(NC(=O)CN2C(=O)NC3(CCCCCCC3)C2=O)cc1	71
73	CCOc1ccc2nc(SCC(=O)Nc3cc(C)on3)c(C)cc2c1	2
74	Cc1cccc(OCCCC(=O)NNC(=O)c2ccc(F)cc2)c1	3
75	O=C(COc1ccccc1C(=O)NCc1ccccc1)Nc1ccccc1	-2
76	C=C1C[C@@]23CCC4[C@@](C)(CCC[C@@]4(C)C(=O)OC)C2CC[C@]1(OC(C)=O)C3 (stereo not given in full)	6
77	COC(=O)Cn1c(Cc2ccccc2)nc2ccccc21	8
78	CCN(Cc1nc2ccccc2c(=O)[nH]1)C(=O)c1cccc(S(=O)(=O)N2CCc3ccccc32)c1	-8
79	Cc1nn(CC(=O)N2CCN(S(=O)(=O)c3ccccc3)CC2)c(C)c1[N+](=O)[O-]	1
80	COc1cc(C(=O)OCC(=O)N2CCCCCC2)c([N+](=O)[O-])cc1OC	3

Arranged by SMILES length (largest number first): 3 of the compounds above.
No.	SMILES	Mtb bLac sens
79	Cc1nn(CC(=O)N2CCN(S(=O)(=O)c3ccccc3)CC2)c(C)c1[N+](=O)[O-]	1
67	O=C(c1ccco1)N1CCN(S(=O)(=O)c2ccccc2)CC1	-4
66	O=C1CN(C(=O)/C=C/c2cc(Br)ccc2F)CCN1	-7

Remaining list, next part
No.	SMILES	Mtb bLac sens
81	Cc1ccccc1[C@]1(C)ON(c2ccccc2C(F)(F)F)C1=O	2
82	COc1ccc(S(=O)(=O)NCc2ccncc2)cc1NC(=O)c1ccccc1F	2
83	N#CCCN(C(=O)CSc1nc2ccccc2c(=O)[nH]1)c1ccc(F)cc1	-7
84	CC(=O)c1cccc(NC(=O)CN2C(=O)NC(C)(c3ccc4c(c3)OCCCO4)C2=O)c1 (stereo not given)	-3
85	COc1ccc(C2=Nn3c(nnc3-c3ccccc3Cl)SC2)cc1OCC1CC1	70
86	COc1ccc(OC)c(S(=O)(=O)N2CCc3ccccc3C2)c1	0
87	COc1ccccc1-c1sc2cc3c(cc2c1-c1ccc(OCCN2CCCCC2)cc1)OCO3	100
88	CCOC(=O)c1sc(NC(=O)c2ccoc2C)c(C(N)=O)c1C	u
89	O=C(Nc1cccc(Cl)c1)c1nc[nH]c1C(=O)NCCCCNC(=O)c1[nH]cnc1C(=O)Nc1cccc(Cl)c1	5
90	COC(=O)c1cc(NC(=O)CN2C(=O)C(=O)N(C3CCCC3)C2=O)cc(C(=O)OC)c1	-1
91	CC(C)N(Cc1ccccc1)C(=O)COC(=O)c1ccccc1SCC(=O)N1CCCC1	-1
92	CC(C)CC1NC(=O)c2cc(Cl)ccc2-n2c1nc1ccccc1c2=O (stereo not given)	7
93	c1cc2c(cc1CNc1ccc(N3CCOCC3)cc1)OCO2	4
94	CCN(CC)CCNC(=O)c1ccc(NC(=O)c2cc(-c3ccncc3)nc3ccccc23)cc1	4

In a second layout: entries from further up.
#91 CC(C)N(Cc1ccccc1)C(=O)COC(=O)c1ccccc1SCC(=O)N1CCCC1
  Mtb bLac sens = -1
#90 COC(=O)c1cc(NC(=O)CN2C(=O)C(=O)N(C3CCCC3)C2=O)cc(C(=O)OC)c1
  Mtb bLac sens = -1
#85 COc1ccc(C2=Nn3c(nnc3-c3ccccc3Cl)SC2)cc1OCC1CC1
  Mtb bLac sens = 70
#82 COc1ccc(S(=O)(=O)NCc2ccncc2)cc1NC(=O)c1ccccc1F
  Mtb bLac sens = 2
